# TRPML1 inh = blocks the human TRPML1 channel. 0.02% of 390,000 active. TRPML1-inducible cells, Ca2+ dye fluorescence, FDSS; hits give low values; inhibition of EC80 agonist-evoked calcium signal. AID 624415. activity change, negative = inhibition, % (concentration not given with the values); in the data active means activity change below about -50%; inconclusive means about -30% to -50%; inactive means above about -30%;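 note: stimulus is agonist 54-4 at its EC80 concentration; % is set by controls: 0 for no effect and ±100 for the full control effect; compound concentration not given in the record; the text of the record puts the active cut at -80%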
# Target sequence (Q9GZU1 whole entry, looked up): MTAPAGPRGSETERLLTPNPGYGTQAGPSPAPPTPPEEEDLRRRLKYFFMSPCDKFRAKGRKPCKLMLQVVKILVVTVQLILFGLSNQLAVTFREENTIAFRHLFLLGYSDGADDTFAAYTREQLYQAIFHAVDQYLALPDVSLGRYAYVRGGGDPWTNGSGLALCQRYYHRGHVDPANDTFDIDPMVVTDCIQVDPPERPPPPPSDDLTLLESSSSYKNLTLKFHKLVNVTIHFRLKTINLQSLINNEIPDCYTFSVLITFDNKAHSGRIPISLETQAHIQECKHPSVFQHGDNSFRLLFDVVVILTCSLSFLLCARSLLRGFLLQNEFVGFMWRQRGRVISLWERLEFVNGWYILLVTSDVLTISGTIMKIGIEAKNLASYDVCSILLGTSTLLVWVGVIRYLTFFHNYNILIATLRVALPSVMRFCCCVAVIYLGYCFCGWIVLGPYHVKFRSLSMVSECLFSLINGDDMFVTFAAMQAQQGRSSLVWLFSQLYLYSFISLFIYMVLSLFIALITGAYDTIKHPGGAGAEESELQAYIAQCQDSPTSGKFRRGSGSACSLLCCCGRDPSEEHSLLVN
#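 TRPML1-DL cells, Tet-induced overnight (~16 h, 37 °C) at 1,500 cells/well, were loaded with Ca8 no-wash dye plus quencher for 45-90 min at room temperature. Compounds were pinned during FDSS kinetic reading; agonist 54-4 at EC80 (4 uM final) then added.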
# PINK1 modulator = changes PINK1 expression; Potency, µM (series often up to 76.6 µM), without a hit: at the highest dose activation (PINK1 increase), hits mostly activators; 0.2% of 410,000 active; PINK1 immunofluorescence, high-content cytometry, 24 h; active = well fitted activation curve with a large enough effect; inconclusive = small, poorly fitted or top-dose-only effect; inactive = flat fitted curve, though single readings scatter; cell line not stated here;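 note: potency is the fitted concentration of half-maximal effect; % of control where 0% means no effect; nearly all actives have a fitted effect of over 65% in size; a mitochondrial uncoupler was the plate control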
#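 Measures PINK1 amount and localization on or inside mitochondria by immunofluorescence. Stable cells get compounds at 5 concentrations for 24 hours before fixation and staining; CCCP controls included.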
# Six1-Eya2 blk = Six1/Eya2 interaction inhibition. activity change, % (test concentration not listed). Q15475+O00167. 0.56% of 360,000 active. AlphaScreen GST-Six1/His-Eya2 binding, biochemical; hits give low values; control for the full effect not named in the record; in the data active = activity change below about -65%; inconclusive = about -30% to -65%; inactive = above about -30%; note: % is set by controls: 0 for no effect and ±100 for the full control effect; compound concentration not given in the record
#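 Compounds are tested against tagged Six1 and Eya2 proteins bridged by glutathione donor and nickel acceptor beads; after a one-hour incubation at 37 °C without light, AlphaScreen emission is recorded.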
# D2 ag = agonists of human D2 dopamine receptor (beta-arrestin). P14416. DiscoveRx PathHunter D2 beta-arrestin, luminescence, 90 min; 100% = 57 uM dopamine signal. activation, % (no concentration beside the values). 0.084% of 360,000 active. AID 624465; in the data active = activation above about 40%; inconclusive = about 15% to 40%; inactive = below about 15%; note: compound concentration not given in the record; the text of the record calls up to 30% inactive
# Target sequence (P14416 whole entry, looked up): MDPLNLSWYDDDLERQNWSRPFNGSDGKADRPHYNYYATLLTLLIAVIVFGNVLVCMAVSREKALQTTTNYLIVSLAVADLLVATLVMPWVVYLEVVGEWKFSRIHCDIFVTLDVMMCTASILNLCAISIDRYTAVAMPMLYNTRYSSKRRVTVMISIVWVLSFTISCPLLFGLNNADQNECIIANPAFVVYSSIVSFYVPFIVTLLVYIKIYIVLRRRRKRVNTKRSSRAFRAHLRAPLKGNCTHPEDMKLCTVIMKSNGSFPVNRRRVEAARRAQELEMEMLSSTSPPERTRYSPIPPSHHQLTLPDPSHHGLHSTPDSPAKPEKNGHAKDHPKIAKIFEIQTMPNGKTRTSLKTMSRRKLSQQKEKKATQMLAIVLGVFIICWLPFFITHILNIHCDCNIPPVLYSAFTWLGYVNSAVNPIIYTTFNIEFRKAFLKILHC
#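 DiscoveRx PathHunter D2 beta-arrestin cells (2,100/well) attached overnight, then compound-stimulated 90 min at 37 C in HBSS/10 mM HEPES/0.1% Tween-20 buffer; beta-galactosidase complementation read by luminescence after 1 h at ambient temperature. Dopamine 57 uM final (EC100) as control.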
# CtBP-E1A blk = blocks the CtBP interaction with E1A | AlphaScreen GST-E1A/His-CtBP binding, 1536-well; hits give low values; control for the full effect not named in the record | 0.49% of 340,000 active | activity change, % (test concentration not listed); in the data active means activity change below about -65%; inconclusive means about -30% to -65%; inactive means above about -30%; note: % is set by controls: 0 for no effect and ±100 for the full control effect; compound concentration not given in the record
#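 Homogeneous bead-based format: GST-tagged E1A captured on glutathione donor beads, His-tagged CtBP on nickel acceptor beads; compounds precede bead addition by 2 h at 37 °C.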
# TRPML1 agonist = activates the human TRPML1 channel; TRPML1-expressing cells, Ca2+ dye fluorescence, FDSS; host cell line not named in the record; reference of the full effect not given here; Q9GZU1; activation, % (no concentration beside the values); 0.12% of 410,000 active; AID 624414; in the data active = activation above about 50%; inconclusive = about 30% to 50%; inactive = below about 30%; note: 0% is about no effect; the text of the record puts the active cut at 80%
#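 Tetracycline-induced TRPML1-DL cells are seeded and incubated overnight before loading with a no-wash Ca2+ dye and quencher. Agonist activity is taken from the 110 s fluorescence read following compound pin-transfer on an FDSS, before EC80 54-4 challenge.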
# Starred values were filed as active, the others as inactive; ? = inconclusive; . = no result given; [ ] = remark or other dose.
SMILES,TRPML1 inh,PINK1 modulator,Six1-Eya2 blk,D2 ag,CtBP-E1A blk,TRPML1 agonist
Nc1cccc(Oc2ccc3c(c2)C(=O)N(CCO)C3=O)c1,6.6,0.6%,-4.0,-0.7,6.4,-0.5
CN(Cc1nc(-c2cnccn2)no1)CC(O)c1ccccc1 (stereo not given),-21.8,0.2%,0.6,4.3,1.4,-0.1
C/C(=N\NC(=O)c1ccc(C)cc1)c1c(C)[nH]n(-c2ccccc2)c1=O,-6.4,-0.3%,?,-1.5,.,-1.7
COc1ccc(S(=O)(=O)Nc2ccccc2C(=O)Nc2nc(-c3ccc(F)cc3)cs2)cc1OC,-10.7,?,-8.4,-0.2,-17.6,7.6
O=C(NC1CC1)c1ccc(CSCc2cccc(F)c2)o1,-5.5,1.4%,-8.2,3.0,3.6,-0.6
COc1ccc(S(=O)(=O)Cc2ccc(C(=O)N3CCCC3)o2)cc1,2.4,2.2%,-3.9,-3.7,0.9,-0.7
COc1ccc(N2C[C@H](Cc3ccccc3)[C@@H](CC(=O)Nc3ccccc3)C2=O)cc1,-23.2,1.3%,-9.3,-7.1,-10.7,0.2
Cc1ccc(CC(NC(=O)c2ccc(C)cc2)C(=O)O)cc1 (stereo not given),-1.5,-0.2%,0.4,-2.9,-3.2,-0.3
CCCCn1c(CCNC(=O)c2ccc(F)cc2)nc2ccccc21,10.3,1.6%,.,.,.,-1.0
COc1cccc(C(=O)NN2C(=O)C3C4C=CC(O4)C3C2=O)c1 (stereo not given),-2.0,1.8%,15.5,-2.7,-0.7,4.1
Cc1cccc(CNC(=O)C2CCC(=O)N(C3CC3)C2)c1 (stereo not given),18.2,1.1%,3.0,-0.9,4.3,2.2
O=C(c1ccc(Cl)c(S(=O)(=O)N2CCCC2)c1)N1CCN(c2ccc(F)cc2)CC1,-2.4,3.0%,-1.8,-0.6,25.0,0.9
Cc1sc2ncnc(N3CCN(Cc4ccccc4)CC3)c2c1-c1ccc(F)cc1,-2.4,4.1%,6.3,-6.9,-2.6,-1.5
CCOC(=O)c1cc2c(=O)n3ccccc3nc2n(Cc2ccco2)c1=NC(=O)c1ccc(C)c(C)c1,11.2,1.3%,.,.,.,11.3
Cn1nnc2cc(C(=O)N3CCN(c4ccccn4)CC3)ccc21,-16.5,-0.1%,7.2,1.4,-15.8,1.0
Cc1cc(C)n2nc(SCCOc3ccc(F)cc3)nc2n1,-8.3,5.2%,?,-0.6,?,-0.2
O=C(O)COc1ccc(NC(=O)c2ccc(NC(=O)c3ccco3)cc2)cc1,-3.8,1.5%,5.2,3.2,.,-0.3
CC(C)(Oc1ccc(Cl)cc1)C(=O)NC1=NN(c2ccccc2)C(=O)C1,-13.0,0.1%,-2.2,-0.8,-3.1,1.7
COC(=O)C(CO)Nc1ncnc2onc(-c3ccc(F)cc3)c12 (stereo not given),7.4,-0.3%,3.5,1.3,6.4,-1.3
CCOc1ccc(N2CC(C(=O)N3CCN(c4ccccn4)CC3)CC2=O)cc1 (stereo not given),4.9,2.9%,9.1,-3.0,-18.5,-0.8
O=C(N/C(=C/c1cccs1)C(=O)N1CCCCCC1)c1ccccc1,-2.4,0.2%[38.3 µM],1.6,-2.2,-7.2,-0.5
O=c1/c(=C/c2ccc(O)c([N+](=O)[O-])c2)sc2nc3ccccc3n12,-9.8,-0.7%,-24.5,-7.3,-8.5,-0.2
CC(=O)OC(C(=O)NC1CCCCC1)c1ccccc1 (stereo not given),-22.5,-1.8%,0.7,-3.0,-2.8,3.2
Cc1ccnc(SC2CC(=O)N(c3ccc(Cl)cc3)C2=O)n1 (stereo not given),-2.0,-0.7%,9.3,-2.5,.,1.8

# The closing 3 compounds of the section before are carried over, then new ones follow:
SMILES,TRPML1 inh,PINK1 modulator,Six1-Eya2 blk,D2 ag,CtBP-E1A blk,TRPML1 agonist
O=c1/c(=C/c2ccc(O)c([N+](=O)[O-])c2)sc2nc3ccccc3n12,-9.8,-0.7%,-24.5,-7.3,-8.5,-0.2
CC(=O)OC(C(=O)NC1CCCCC1)c1ccccc1 (stereo not given),-22.5,-1.8%,0.7,-3.0,-2.8,3.2
Cc1ccnc(SC2CC(=O)N(c3ccc(Cl)cc3)C2=O)n1 (stereo not given),-2.0,-0.7%,9.3,-2.5,.,1.8
O=[N+]([O-])c1cccc(CSc2cccc[n+]2[O-])c1,-11.0,-1.9%,-4.2,-2.7,.,1.6
Cc1ccc(C)c(N2CCN(c3ncnc4c3cnn4-c3ccccc3)CC2)c1,-2.2,6.5%,8.6,-2.5,-24.8,-0.2
O=C(OCC(=O)c1c[nH]c2ccccc12)c1cccc(S(=O)(=O)N2CCCCCC2)c1,1.9,0.7%,-6.1,2.7,4.3,-0.2
CCOC(=O)c1ccc(N2C(=O)c3[nH]nc(-c4ccc(OC)cc4)c3C2c2cccc(O)c2)cc1 (stereo not given),32.6,-1.0%,.,.,.,1.1
NC1=NC[C@@H](Cc2ccc(O)cc2)N1CCc1cccc(F)c1,17.6,4.5%,-10.4,-0.2,2.5,-1.2
OC1CCN(c2cc(-c3ccccc3)nc3cc(-c4ccc(F)cc4)nn23)CC1,-8.2,-0.1%,14.8,-0.9,16.3,-0.2
O=C(c1ccc2c(=O)n(C3CCCC3)c(=S)[nH]c2c1)N1CCN(C2CCCCC2)CC1,-3.2,4.7%,-0.2,-3.0,2.1,-0.3
COc1ccc(NC(=O)C(NC(=O)c2ccccc2)C(C)C)cc1 (stereo not given),-20.0,8.2%[38.3 µM],4.1,-2.3,2.6,-0.6
Cc1ccc(C(C)C)c(OCCCCCN2CCOCC2)c1,5.8,3.8%,-4.5,-2.5,-0.7,-0.2
O=C(/C=C/c1cccc(C(F)(F)F)c1)NNC(=O)c1ccncc1,-0.9,-3.3%,1.3,-4.8,-12.7,1.1
Cc1ccc(P(=O)(c2ccc(C)cc2)[C@@H](NC(c2ccccc2)c2ccccc2)c2ccccc2)cc1,.,?,-20.8,.,-10.6,5.9
CC1CC(=O)NN1C(=O)c1ccccc1 (stereo not given),-4.4,0.1%,4.2,0.5,-1.9,0.0
C[C@@H]1CN([C@@H](C)CO)S(=O)(=O)c2ccc(Br)cc2O[C@@H]1CN(C)C(=O)c1ccc(F)cc1,9.8,-1.9%,0.0,-1.5,0.6,-0.1
CCCN(CCC)CCCNC(=S)Nc1ccc2nc3n(c(=O)c2c1)CCCCC3,-25.4,-3.3%,-0.3,2.0,19.4,0.4
COc1cc(O)oc1C=Nc1ccc(C(F)(F)F)cc1,19.7,-4.4%,3.8,-1.8,-10.3,1.4
Cc1ccccc1CN1CCN(CC2CC2)CC1CCO (stereo not given),1.1,-0.5%,3.7,-4.7,.,-0.5
Cc1cc(S(=O)(=O)N2CCN=C2c2ccccc2)c(C)cc1Cl,-1.7,-0.3%,0.2,-1.4,1.1,0.8
CCn1c(CNC(=O)c2ccc(OC)cc2)nnc1SCC(=O)Nc1ccccc1,-6.8,4.9%,.,.,.,-1.0
CCOC(=O)c1cnc2c(OC)cccc2c1N1CCN(c2ccccc2OC)CC1,5.6,1.6%,-12.7,-3.1,-4.2,0.6
CCOC(=O)c1c(NC(=O)c2c(Br)cnn2C)c(C#N)nn1-c1ccccc1,7.0,-0.4%[38.3 µM],-12.0,-1.0,-3.8,0.0
CCOc1ccc(C(=O)COC(=O)c2cc(=O)[nH]c3ccccc23)cc1,-17.1,5.6%,9.7,-2.9,-9.5,0.8
Cc1cc(Br)cc(Cl)c1OCC(=O)NC(=O)NCc1ccccc1,-6.9,15.4%,1.4,2.8,2.3,4.2
COc1ccc(OC)c(/C=C/C(=O)c2ccc3c(c2)OCO3)c1,10.8,-1.7%,-7.6,-3.0,.,0.1
NC(=O)C1CCN(c2oc(-c3cccs3)nc2S(=O)(=O)c2ccc(Br)cc2)CC1,-1.6,2.9%,3.7,-0.2,7.6,-0.3
CCC(c1nnnn1CC1CCCO1)N(CCCO)Cc1cc2cccc(C)c2[nH]c1=O (stereo not given),18.0,-2.8%,1.8,-1.0,4.1,-0.9
CCOC(=O)N1CCN(S(=O)(=O)c2cccc3cccnc23)CC1,-9.9,0.0%,1.1,1.1,2.7,0.4
CN(C(=O)CCl)C1CCCc2ccccc21 (stereo not given),0.2,-1.7%,10.0,-3.7,-17.8,0.3
CCN(C(=O)c1ccco1)c1nnc(-c2ccc(OC)cc2)s1,25.2,6.8%,1.6,1.4,7.3,2.3
Cc1ccsc1C(=O)OCC(=O)Nc1cccc(S(=O)(=O)N2CCCCC2)c1,6.6,2.6%,-13.0,-0.2,-2.9,0.6
COc1ccc(-c2[nH]c(-c3cc(OC)c4c(c3)OCO4)nc2-c2ccccc2)cc1,4.1,-0.3%,?,2.6,?,2.5
Clc1ccc(Cn2ncc3c(NCc4ccco4)ncnc32)c(Cl)c1,20.0,6.7%,-11.3,0.8,-5.2,1.1
CCOC(=O)C(Cc1ccc(NC(=O)/C(=C/c2ccccc2)NC(=O)c2ccccc2)cc1)N1C(=O)c2ccccc2C1=O (stereo not given),-5.6,0.0%,-0.9,-3.1,-0.7,0.3
O=C(NC1CCCC1)C(c1ccccn1)N(Cc1ccccc1F)C(=O)c1csnn1 (stereo not given),6.9,-3.0%,-1.1,1.4,3.4,0.1
CC1CCCN(C(=O)CCc2nnc(-c3ccc4c(c3)OCO4)o2)C1 (stereo not given),8.1,0.2%,0.9,0.4,2.2,-0.2
NC(=O)c1cccc(Nc2nc(C(N)C3CCCCC3)cs2)n1 (stereo not given),.,5.8%,-15.0,-4.7,-14.0,1.3
CC(C)(c1ccccc1)c1ccc(OCC(O)CN2CCCC2)cc1 (stereo not given),-5.5,7.4%,-2.8,5.4,-3.8,1.1
O=C(CN(c1ccc(F)cc1)S(=O)(=O)c1ccc2c(c1)OCCO2)NCc1ccccn1,2.9,4.1%,-0.1,-4.1,2.9,-0.4
CCOc1ccc2[nH]c(=O)c(C(c3nnnn3C3CCCCC3)N3CCN(CC)CC3)cc2c1 (stereo not given),18.7,-3.1%[38.3 µM],-0.2,-3.0,3.4,0.4
Cc1ccccc1C(=O)NNC(=S)NC(=O)c1cccs1,-19.9,2.0%,-11.2,-8.5,.,21.8
CCn1c(=O)cc(OCC(=O)NCc2ccccc2OC)c2ccccc21,-11.5,16.7%,.,.,.,1.1
O=C(CCc1nnc2ccc(NCc3ccco3)nn12)N1CCN(c2ccc(F)cc2)CC1,-7.6,-0.8%,-5.2,-4.5,-8.2,-1.1
CN(C(=O)Nc1ccc(Cl)cc1)n1cnc2ccccc2c1=O,48.4,-1.7%,-0.9,-1.7,4.4,3.9
COc1ccc(CN2C(=O)C(CC(=O)NCCCN(C)C)CC(C(=O)N3CCOCC3)=C2C)cc1 (stereo not given),.,1.5%,0.6,-3.0,7.9,-0.2
COc1ccc(NC(=O)c2cc(S(=O)(=O)N3CCOCC3)ccc2OC)cc1,-6.5,25.7%,.,.,.,0.1
O=C(NCC1CCCO1)/C(=C\c1cccs1)NC(=O)c1ccccc1 (stereo not given),-8.0,-1.1%,5.4,-6.1,-9.6,0.4
COc1ccccc1C(c1nnnn1CC1CCCO1)N1CCN(c2ccccc2)CC1 (stereo not given),-16.1,-2.0%,0.8,3.5,-0.2,1.1

# Source: PubChem BioAssay (National Center for Advancing Translational Sciences (NCATS))
